High-throughput results: PubChem BioAssay, National Center for Advancing Translational Sciences (NCATS)
Rango dissoc inh: inhibitors of RanGTP-induced Rango-importin beta complex dissociation; O95149+P62826; Biochemical FRET Rango-importin beta, RanGTP-induced dissociation; Potency, µM (series often up to 46.1 µM), inactives show at the highest dose activity change, negative = inhibition; actives 0.071% (n = 340,000); AID 540253; active means falling FRET ratio curve, often poorly fitted, with flat reads before Ran was added; inconclusive means other falling curves, or compound fluorescence or quenching; inactive means flat or rising ratio curve;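 note: potency is the fitted concentration of half-maximal effect; % of control where 0% means no effect; nearly all actives have a fitted effect of over 45% in size; -100% = wells without RanGTP and RCC1; the record marks most hits as doubtful in a second field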
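Quantitative HTS using a FRET biosensor: 0.1 uM Rango, 0.25 uM importin beta, 0.6 uM Ran, 2 mM GTP, 0.2 uM RCC1 final, PBS with DTT, Tween-20 and BSA. Post-read taken 45 min after Ran addition.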
miR-21 FLuc: miR-21 reporter, rising signal | Potency, µM (series often up to 38.3 µM), for inactives: at the top dose reporter change, positive = more light | AID 2288 | 340,000 tested, under 10 active | HeLa miR-21 FLuc reporter, luciferase, 48 h; active = well fitted rising curve with a large enough effect; inconclusive = small, poorly fitted or top-dose-only effect; inactive = no such curve, though single readings can be large or run the other way;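 note: % of control where 0% means no effect; miR-21 action dims this reporter so a rising signal means less miR-21 action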
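Using DMEM plus 10% FBS, HeLa miR-21-FLuc cells are incubated with test compounds (final up to about 40uM) for 48 hours; firefly luciferase signal is then imaged following reagent-mediated lysis.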
GLA inh pH 4.5: blocks human alpha-galactosidase A at pH 4.5. 230,000 tested, under 10 active. P06280. purified enzyme, 4-MU-alpha-Gal fluorescence, pH 4.5. AID 1467. activity change, negative = inhibition, % at 105 µM; inconclusive = small, poorly fitted or top-dose-only inhibition, or a rising curve; inactive = flat fitted curve, though single readings scatter; no compound was filed as active;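 note: 0% = full activity with enzyme and -100% = basal without enzyme; dose as in the result columns while the protocol names 77 µM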
Rango-impB inh: Rango-importin beta binding inhibition; Q14974; Rango CFP/YFP FRET sensor + importin beta, 45 min; Potency, µM (series often up to 92.2 µM), inactives show at the top dose inhibition of complex formation; actives 0.031% (n = 340,000); AID 540263; active = rising FRET ratio curve, often small or poorly fitted; inconclusive = mostly compound fluorescence or quenching in the first reads; inactive = flat curves in all reads;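 note: potency is the fitted concentration of half-maximal effect; 0% = DMSO wells and 100% = buffer wells lacking importin beta; nearly all actives have a fitted effect of over 15% in size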
Target sequence (Q14974 whole entry, looked up): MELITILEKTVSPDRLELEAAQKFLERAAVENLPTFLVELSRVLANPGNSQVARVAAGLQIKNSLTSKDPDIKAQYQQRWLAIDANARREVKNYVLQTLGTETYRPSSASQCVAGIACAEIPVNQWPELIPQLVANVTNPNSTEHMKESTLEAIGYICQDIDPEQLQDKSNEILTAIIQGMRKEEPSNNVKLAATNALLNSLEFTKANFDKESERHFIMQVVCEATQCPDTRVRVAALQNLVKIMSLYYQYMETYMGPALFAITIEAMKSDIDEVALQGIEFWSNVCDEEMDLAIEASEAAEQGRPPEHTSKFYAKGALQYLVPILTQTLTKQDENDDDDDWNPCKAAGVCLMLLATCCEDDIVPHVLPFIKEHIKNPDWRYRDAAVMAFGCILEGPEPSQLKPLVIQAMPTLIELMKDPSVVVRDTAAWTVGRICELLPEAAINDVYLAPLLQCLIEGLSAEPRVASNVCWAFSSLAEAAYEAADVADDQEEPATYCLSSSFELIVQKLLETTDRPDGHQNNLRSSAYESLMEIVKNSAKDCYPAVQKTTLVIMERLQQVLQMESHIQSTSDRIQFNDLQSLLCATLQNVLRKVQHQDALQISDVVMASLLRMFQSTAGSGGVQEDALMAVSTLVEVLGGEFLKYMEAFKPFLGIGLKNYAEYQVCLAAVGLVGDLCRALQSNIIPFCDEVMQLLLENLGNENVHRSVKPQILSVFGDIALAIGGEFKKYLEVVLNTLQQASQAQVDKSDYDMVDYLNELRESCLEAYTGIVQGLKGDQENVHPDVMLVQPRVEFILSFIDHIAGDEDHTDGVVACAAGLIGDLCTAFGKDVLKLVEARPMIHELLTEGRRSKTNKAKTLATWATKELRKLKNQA
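FRET biosensor (snurportin 1 IBB flanked by EYFP and cerulean), 50 nM, with compound 5 min, then 0.125 microM importin beta in PBS, 1 mM DTT, 0.02% Tween-20, 0.1% BSA. CFP/YFP ratio read after 45 min at room temperature; pre-read flags interference.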
Starred values were filed as active, the others as inactive; ? = inconclusive; / = not tested or not shown; & = joins results of further samples.

Every second line gives: Rango dissoc inh, miR-21 FLuc, GLA inh pH 4.5, Rango-impB inh
> Cc1oc(-c2cccc(C(F)(F)F)c2)nc1CN1CCOCC1
    0%, -49%, -13, -2.5%
> COC(=O)CSc1cc(C)nc(SC)n1
    5%, -2%, 2, -2.6%
> CCn1c(=O)cc(SCC(=O)NCCCN2CCN(c3ccc(F)cc3)CC2)c2ccccc21
    -6%, 10%, -2, -0.8%
> Cc1ccc(SC(C)C(=O)N2CCCC2)cc1 (configuration not stated)
    14%, -7%, -2, -1.3%
> O=C1c2c(O)cc(O)cc2O[C@H](c2ccc(O)c(O)c2)[C@H]1O
    9%, -16%, 5, 0.2%
> CCC(C)(C)n1nnnc1C(c1ccc(C)cc1)N1CCN(Cc2ccc3c(c2)OCO3)CC1 (configuration not stated)
    1%, -10%, -2, 4.0%
> O=[N+]([O-])c1ccc(Oc2cccnc2)c([N+](=O)[O-])c1
    -8%, /, /, 2.2%
> CCCOP(=O)(c1ccc(N(C)C)cc1)C(O)c1cc(OC)c(OC)c(OC)c1 (configuration not stated)
    -6%, -2%, -2, 1.5%
> CCc1noc(C)c1C(=O)OCC(=O)N(CCOC)c1c(N)n(Cc2ccccc2)c(=O)[nH]c1=O
    22%, /, /, ?
> Cc1cc([N+](=O)[O-])ccc1NC1CCCC1
    -19%, -1%, -2, -3.9%

(cont.)
Every second line gives: Rango dissoc inh, miR-21 FLuc, GLA inh pH 4.5, Rango-impB inh
> O=c1oc(-c2ccccc2Br)nc2ccccc12
    15%, -3%, /, 10%
> COc1ccc(/C=C/C(=O)Nc2cc(S(=O)(=O)N3CCOCC3)ccc2C)cc1OC
    -9%, -25%, -2, -5.7%
> CCCNC(=O)c1ccc(Cn2cc(C(F)(F)F)ccc2=O)cc1
    29%, -3%, -6, 3.4%
> Cc1cc(NC(=O)COc2coc(CN3CCN(c4ccc(F)cc4)CC3)cc2=O)no1
    -12%, /, /, -0.4%
> CCOc1ccccc1N(C)C(=O)c1cc2c(=O)n(CC)c3ccccc3c2s1
    16%, -5%, -6, 3.6%
> COc1ccccc1/C=C1\SC(=S)N(NS(=O)(=O)c2ccccc2)C1=O
    2%, -8%, /, 4.9%
> O=C(CCC(=O)Nc1ccccc1)N/N=C/c1ccc2c(c1)OCO2
    -4%, -30%, /, -2.1%
> COc1ccc(/C=N/OC(=O)Nc2ccc(Cl)cc2)c(OC)c1
    -1%, -33%, -5, -5.5%
> COc1ccc2oc(-c3ccc(NC(=O)c4ccc(N5CCOCC5)c([N+](=O)[O-])c4)cc3)nc2c1
    6%, -11%, 0, -0.3%
> CCc1cc2c(SCC(=O)NC3CC3)ncnc2s1
    1%, /, /, -2.2%

Copied from the list:
CCCNC(=O)c1ccc(Cn2cc(C(F)(F)F)ccc2=O)cc1 in Rango-impB inh: 3.4%
CCOc1ccccc1N(C)C(=O)c1cc2c(=O)n(CC)c3ccccc3c2s1 in Rango dissoc inh: 16%

The list goes on:
Every second line gives: Rango dissoc inh, miR-21 FLuc, GLA inh pH 4.5, Rango-impB inh
> COc1ccc(CN(CC(=O)NCc2ccco2)C(=O)CNS(=O)(=O)c2ccc(C)cc2)cc1
    3%, 0%, /, 3.7%
> COCCn1c(Cc2ccccc2)nnc1SC(C)C(=O)NC1CC1 (configuration not stated)
    -7%, /, /, 2.5%
> Cc1cc(NC(=O)COC(=O)CSc2nc3cc(Cl)ccc3n2Cc2ccccc2)no1
    -7%, -4%, 3, 0.9%
> CCOc1cc(OCC)cc(C(=O)NCCCN2CCOCC2)c1
    12%, 1%, 5, -5.8%
> Cc1ccc(SC2CCN(C(=O)C3CCC(=O)N(C4CC4)C3)CC2)cc1 (configuration not stated)
    10%, -4%, /, 1.0%
> Cc1ccc(C(CC(=O)N2CCOCC2)c2ccco2)cc1 (configuration not stated)
    ?, -11%, 8, ?
> COc1cc(C2NC(=O)NC(C)=C2C(=O)OCC2CCCO2)ccc1O (configuration not stated)
    16%, -11%, -4, -3.8%
> Cc1ccc(CC(=S)N2CCOCC2)cc1
    -8%, -8%, -2, -3.2%
> COc1ccc(N2CC(C(=O)Nc3nnc(SCC(=O)c4ccccc4)s3)CC2=O)cc1 (configuration not stated)
    -13%, -7%, 3, 2.1%
> COc1ccc(-c2nnc(SCC(=O)c3ccc(C)o3)o2)cc1
    19%, -15%, -11, -1.3%

Later entries
Every second line gives: Rango dissoc inh, miR-21 FLuc, GLA inh pH 4.5, Rango-impB inh
> CCOc1ccccc1C1C2=C(COC2=O)Nc2cc3c(cc21)OCO3 (configuration not stated)
    2%, 28%, 3, -1.7%
> Cc1ccc(NC(=O)Cc2ccsc2)cc1S(=O)(=O)N1CCOCC1
    2%, /, /, 2.0%
> O=S(=O)(N1CCCCC1)N1CCNCC1
    18%, 1%, 2, -2.0%
> Cc1cc(C)nc(N/N=C/c2cccc(Cl)c2)n1
    15%, -27%, 9, -0.8%
> O=C(Nc1cccc(F)c1)C1CCN(C(=O)Cc2ccccc2)CC1
    -2%, -4%, 2, -2.3%
> Cc1ccccc1-c1cc2nc(-c3ccc([N+](=O)[O-])cc3)cc(=O)n2[nH]1
    6%, -2%, -2, 0.8%
> COCCNC(=O)NC(=O)COC(=O)C12CC3CC(CC(NC(C)=O)(C3)C1)C2
    4%, -5%, 11, 2.5%
> Cc1ccc(CNC(=O)C(=O)NCC2CCCN2S(=O)(=O)c2cccs2)cc1 (configuration not stated)
    0%, /, /, -1.1%
> CC(C)Oc1cc(O)c2c(=O)c(-c3ccc(O)cc3)coc2c1
    -6%, -35%, 0, -0.1%
> COc1ccc(Cc2nnc(NC(=O)c3ccccc3C)s2)cc1
    -3%, 13%, /, 0.0%

Next results.
Every second line gives: Rango dissoc inh, miR-21 FLuc, GLA inh pH 4.5, Rango-impB inh
> Cc1ccc(-c2nnn(CC(=O)N(c3ccccc3)C(C(=O)NCC3CCCO3)c3ccc(F)cc3)n2)o1 (configuration not stated)
    -1%, -1%, -17, -5.0%
> Cc1ccc(-n2c(SCc3cn4ccsc4n3)nc3ccccc3c2=O)cc1
    -11%, 0%, -2, -0.7%
> Cc1c(NC(=O)C2CC=CCC2C(=O)O)c(=O)n(-c2ccccc2)n1C (configuration not stated)
    -2%, -6%, -4, 8.8%
> COc1ccccc1N1CCN(C(=O)/C=C/c2cccs2)CC1
    -12%, -28%, -6, -2.6%
> Cc1cc(NC(=O)Cc2ccccc2[N+](=O)[O-])no1
    5%, -5%, /, -5.4%
> CCOC(=O)Cn1c(C)[n+](C)c2cc(Cl)c(Cl)cc21
    -2%, 0%, -11, 3.2%
> COc1cc(Cn2nnc3ccccc32)cc(Br)c1O
    0%, -22%, /, -1.4%
> O=C1O/C(=C\C(=O)N2CCOCC2)c2ccccc21
    -6%, 1%, 2, -0.7%
> C#CCCC/C(=C\C(=O)N(C)[C@H](C(=O)N(C)[C@H](C(=O)N(C)[C@H](C(=O)N(C)[C@H](C(N)=O)C(C)C)C(C)C)C(C)C)C(C)C)OC
    ?, /, /, 0.8%
> CCN(C(=O)COC(=O)c1c(C)noc1C)C1CCS(=O)(=O)C1 (configuration not stated)
    -5%, 2%, -4, -0.2%

New compounds follow.
Every second line gives: Rango dissoc inh, miR-21 FLuc, GLA inh pH 4.5, Rango-impB inh
> CN(C)C(=O)CSc1n[nH]c(-c2ccco2)n1
    7%, 3%, 5, ?
> CC(C)=CCCC(C)CN1CCC(N2CCC(C(=O)N3CCOCC3)CC2)CC1 (configuration not stated)
    8%, 0%, 1, -1.7%
> O=C(Nc1cccnc1)c1ccc(C(=O)Nc2cccnc2)cc1
    -3%, 0%, 10, -1.3%
> CCCCC1(Cc2ccc([N+](=O)[O-])cc2)C(=O)N(c2ccccc2)N(c2ccccc2)C1=O
    13%, ?, -3, -0.8%
> COc1cc(C2C(C#N)=C(N)Oc3cc(C)n(Cc4ccccn4)c(=O)c32)cc2c1OCO2 (configuration not stated)
    /, -10%, -8, /
> C=CCNC(=O)COC(=O)c1ccc(Sc2nncn2C)c([N+](=O)[O-])c1
    2%, -2%, -2, ?
> CCc1ccc(C(=O)Cn2ccsc2=N)cc1
    17%, -36%, /, 3.6%
> CCCC(c1nnnn1CCOC)N1CCN(C(=O)c2ccco2)CC1 (configuration not stated)
    10%, -4%, 1, -2.3%
> CCC(C)NC(=O)c1cc2c(=O)n(CC)c3ccccc3c2s1 (configuration not stated)
    11%, -8%, /, 0.3%
> CC(=O)C1=C(C)Nc2ncnn2C1c1cccc(O)c1 (configuration not stated)
    -10%, 5%, /, 0.2%

The listing continues.
Every second line gives: Rango dissoc inh, miR-21 FLuc, GLA inh pH 4.5, Rango-impB inh
> CCO[C@@H]1OC(C(=O)Nc2ccccc2)=C[C@H](C2CC2)[C@H]1CCCO
    8%, 2%, 1, -0.4%
> O=C(O)C(Cc1ccccc1)N1C(=O)/C(=C/c2cccs2)SC1=S (configuration not stated)
    8%, -1%, 2, -0.2%
> Nc1nnc(SCc2ccc(F)cc2Cl)s1
    1%, -32%, -6, -4.7%
> Cc1nc(C(=O)NC2CCOCC2)sc1C1(C)CC(c2ccccc2)=NO1 (configuration not stated)
    -1%, 1%, 5, 12%
> O=C(C1=C[C@@H](c2ccc3c(c2)OCO3)C[C@@H](OCCCCO)O1)N1CCOCC1
    0%, -5%, -8, -0.4%
> CC1=Nc2ccccc2N=C(NC(=O)CN2CCN(c3ccc(F)cc3)CC2)C1c1ccccc1 (configuration not stated)
    5%, -1%, -6, 0.2%
> NC(=O)c1ccsc1NC(=O)CS(=O)(=O)c1ccccc1
    -6%, /, /, 0.1%
> CCOC(=O)C(CC(=O)c1ccccc1)CC(=O)c1ccccc1
    23%, -49%, /, -0.2%
> COc1ccc(C2C=C(C34CC5CC(CC(C5)C3)C4)NC(=S)N2)cc1OC (configuration not stated)
    2%, 2%, 1, -0.3%
> CC(=O)c1sc(NC(=O)C2CCN(C(=O)c3ccccc3C)CC2)nc1-c1ccccc1
    0%, /, /, 0.6%

Additional structures follow:
Every second line gives: Rango dissoc inh, miR-21 FLuc, GLA inh pH 4.5, Rango-impB inh
> O=C1c2cccc(OCC(=O)N3CCCc4ccccc43)c2CCN1Cc1ccccc1
    -10%, 27%, 1, 2.9%
> O=C(COC(=O)CCSc1ccccc1Cl)NCc1ccco1
    1%, -3%, -8, -2.9%
> O=C(Nc1cccc(Cl)c1)c1cnccn1
    -11%, -29%, /, 4.1%
> COCCC(=O)N1CCC(Oc2ccc(C(=O)N3CCCCC3COC)cc2)CC1 (configuration not stated)
    19%, 1%, /, -0.6%
> CC(=O)CCCCn1cnc2c1c(=O)n(C)c(=O)n2C
    /, -8%, -3, /
> O=c1c2cc3ccccc3n2cnn1Cc1ccccc1F
    -8%, 8%, 1, -1.4%
> O=C(NC1CCCCC1c1ccccc1)c1ccccc1 (configuration not stated)
    -3%, /, /, -1.1%
> COC(=O)c1cccc(S(=O)(=O)N2CCN(c3nc4ccccc4s3)CC2)c1
    9%, -3%, 2, 2.7%
> CCOC(=O)c1cccc(NC(=O)CSc2nncn2-c2ccccn2)c1
    -7%, 10%, /, 4.7%
> CCOC(=O)c1ccc(NC(=O)CCS(=O)(=O)c2ccc(Br)s2)cc1
    -2%, 1%, 5, -0.6%

Following part
Every second line gives: Rango dissoc inh, miR-21 FLuc, GLA inh pH 4.5, Rango-impB inh
> Cc1cc(C)c[n+](-c2nc3ccccc3nc2[N-]S(=O)(=O)c2ccc(Cl)cc2)c1
    -22%, 3%, 10, ?
> Cc1cc(C)n2ncc(C(=O)NCc3ccc(Cl)cc3)c2n1
    3%, -12%, 0, 2.8%
> COc1ccc2c(c1)CC/C(=C\C=C\c1ccccc1)C2=O
    -9%, -44%, -8, -1.5%
> COc1ccc(/C=C2\CCC(C3CCCC3)C2=O)cc1 (configuration not stated)
    11%, -31%, /, 3.0%
> CCOc1ccc(CN2CCNC(=O)C2CC(=O)NC2CCCCCC2)cc1 (configuration not stated)
    -3%, -2%, /, -0.7%
> CCOc1ccc(NC(=O)CC2C(=O)N(c3ccccc3)C(=O)N2Cc2ccco2)cc1 (configuration not stated)
    -9%, -2%, 0, 0.2%
> CCc1ccccc1NC(=O)Cn1nnc(C(=O)NCc2cccs2)c1N
    0%, 9%&11%, -3, 2.6%
> Cc1cc(C)c(NC(=O)CN2CCN(C)CC2)c(C)c1
    3%, -24%, -12, ?

These rows are one share of the data, so the mix of outcomes need not match the whole.
